# From PubChem
# Vaccinia Venus – inhibitors of vaccinia virus (Venus reporter); Vaccinia virus Venus reporter expression, fluorescence; Potency, µM (series often up to 36.5 µM), for the others: top-dose activity change, negative = inhibition, usual class: inhibitors; 330,000 compounds, 0.46% hits; AID 720580; active means well fitted inhibition curve with a large enough effect; inconclusive means small, poorly fitted or top-dose-only effect; inactive means no such curve, though single readings can be large or run the other way; tested in A549 cells; further: nearly all actives have a fitted effect of over 30% in size; inactives centre near -10
# VACV mCherry inh – inhibitors of vaccinia virus infection (mCherry reporter signal) | Vaccinia virus mCherry reporter infection, fluorescence; about a quarter of the inactives have no number | Potency, µM (highest dose often 36.5 µM), for inactives: at the top dose activity change, negative = inhibition, actives largely listed as inhibitors | 310,000 compounds, 0.63% hits | AID 720579; active = well fitted inhibition curve with a large enough effect; inconclusive = small, poorly fitted or top-dose-only effect; inactive = no such curve, though single readings can be large or run the other way; tested in A549 cells; further: nearly all actives have a fitted effect of over 35% in size; inactives centre near -10
# Active calls of the source: *; i = inactive; ? = inconclusive; nt = not tested or not shown; & = joins results of further samples; [ ] = dose if it differs, or a comment. On the % scale 0 is the no-effect control and ±100 the full control effect; potency means the concentration at half of the fitted maximal effect.
SMILES,Vaccinia Venus,VACV mCherry inh
CC(C)(C)OC(=O)N[C@@H](Cc1ccccc1)C(=O)N1CCC(C(=O)O)CC1,-7%,nt
COc1cc2sc(C)nc2c2sccc12,-10%,-17%
CN(C)c1ccc(/C=N/OC(=O)Nc2ccccc2)cc1,2%,-16%
Cc1cccc(C)c1NC(=O)CN(C)C(=O)c1ccc(N2C(=O)CCC2=O)cc1,-5%,-11%
C/C(=N\NC(=O)c1cccc(Cl)c1)C1C(=O)c2ccccc2C1=O,?,?
O=C(Nc1ncccn1)C1CCCN1S(=O)(=O)c1ccc(Cl)c(Cl)c1 (stereo unspecified),-10%,-14%
C[C@@H]1CN([C@@H](C)CO)C(=O)CCCn2nncc2CO[C@@H]1CN(C)C(=O)Nc1ccccc1C(F)(F)F,-8%,-11%
Cc1ccccc1S(=O)(=O)NC(=O)C1(C)CCN1C(=O)C1CCCCC1 (stereo unspecified),-3%,-7%
CCOC(=O)c1cc(NC(=O)OC)c(C)nc1C,-3%,-9%
COc1ccccc1C(=O)N/C(=C/c1ccco1)C(=O)Nc1cccc(C(=O)O)c1,10%,3%
C/C(=N/NC(=O)c1ccccc1)C(=O)O,-6%,-2%
COc1ccc2nc(NC(=O)c3cc(=O)c4cc(C)c(C)cc4o3)sc2c1,-9%,-6%
CNC(=O)/C(=C/c1ccc2c(c1)OCO2)NC(=O)c1ccc(Br)cc1,-5%,-18%
Cc1ccc(N2C(=O)S/C(=C/c3cn(C)c4ccccc34)C2=O)cc1,-9%,-12%
CCc1cccc(NC(=O)Cc2ccc([N+](=O)[O-])cc2)c1,-10%,-17%
CCn1c(SCC(=O)N/N=C/C=C/c2ccco2)nnc1-c1ccc(OC)cc1,-10%,?
CC[C@]12c3[nH]c4ccccc4c3CCN1C(=O)C(CC(=O)NCc1ccc(OC)c(OC)c1)C[C@@H]2C(=O)N1CCN(C(=O)C2CC2)CC1 (stereo partly specified),-13%,-11%
COc1ccccc1NC(=O)CCN1C(=O)c2ccccc2S1(=O)=O,-10%,-1%
CC(C)CC(=O)OC(C)(C)[C@@H]1Cc2c(ccc3ccc(=O)oc23)O1,7%,i
Cc1ccc(C)c(NC(=O)Cn2c(=O)n(CC(=O)NCCc3ccccc3)c(=O)c3ccccc32)c1,-1%,-18%
N=c1c[n+](-c2ccc(Cl)cc2)[n-]o1,-19%,nt
C=CCc1cc(C=O)cc(OC)c1OCc1ccc(C(=O)O)cc1,-11%,-11%
COc1cccc(-c2nc(CS(=O)(=O)CC(=O)Nc3ccccc3C)c(C)o2)c1,-21%,-15%
CN(C)/C=C/c1onc(-c2c(F)cccc2Cl)c1C#N,-15%,-6%
COC(=O)[C@]1(C)N[C@H](CN(C)C(=O)Nc2ccc(Cl)cc2)[C@@H]2C(=O)N(C)C(=O)[C@@H]21,-17%,-16%
COc1ccc(NS(=O)(=O)c2cc3c(cc2C)N(C(C)=O)CCO3)c(OC)c1,-9%,-14%
CCOC(=O)c1c(C)c(C(=O)OCC)n(C)c1C,-16%,i
CCC(Sc1nc2ccsc2c(=O)n1Cc1ccc(C(=O)O)cc1)C(=O)Nc1cccc(OC)c1 (stereo unspecified),-14%,-1%
CSc1ccc(/C=N/Nc2cccc(C(=O)O)c2)cc1,-13%,-8%
CC(C)N1CCOC1c1ccccc1 (stereo unspecified),-10%,-11%

# Given with values under each structure: part of the list above.
# Each structure is followed by: Vaccinia Venus	VACV mCherry inh
CCC(Sc1nc2ccsc2c(=O)n1Cc1ccc(C(=O)O)cc1)C(=O)Nc1cccc(OC)c1 (stereo unspecified)
  -14%	-1%
CSc1ccc(/C=N/Nc2cccc(C(=O)O)c2)cc1
  -13%	-8%
CC(C)N1CCOC1c1ccccc1 (stereo unspecified)
  -10%	-11%

# (further entries)
SMILES,Vaccinia Venus,VACV mCherry inh
COC(=O)C(CCSC)NC(=O)c1cc2c(n(-c3ccc(OC)cc3)c1=O)CC(C)(C)CC2=O (stereo unspecified),7%,1%
CC(NCc1ccc(S(N)(=O)=O)cc1)C(=O)Nc1ccc([N+](=O)[O-])cc1Cl (stereo unspecified),-8%,-9%
N#CC(CO)(Cc1ccc(OC(F)F)cc1)c1nc2ccccc2[nH]1 (stereo unspecified),-10%,17%
CCN(CC)S(=O)(=O)c1ccc(N2CCOCC2)c(NC(=O)C2COc3ccccc3O2)c1 (stereo unspecified),-22%,-5%
O=C(CCCN1CC=C(n2c(=O)[nH]c3ccccc32)CC1)c1ccc(F)cc1,-15%&-11%,-22%&-15%
Cc1ccc(C(=O)Cn2c(=N)n(CCN3CCOCC3)c3ccccc32)cc1,-16%,?
CCc1ccc(/C=C2/SC(=S)N(CCC(=O)Nc3cccc(C(=O)O)c3)C2=O)cc1,75%[activator],-8%
COc1ccc(/C=N/Nc2cc(N(C)C)nc(N(C)C)n2)cc1,-29%,-23%
O=C(NCCSc1ccccc1)c1cncc(Br)c1,3%,nt
O=C(NCc1ccccc1)c1onc(CS(=O)(=O)c2ccccn2)c1C(=O)NCc1ccccc1,-11%,i
Cc1ccc(CNc2cccnc2)cc1,-9%,-20%
Cc1cccc(NC(=S)N2CCC(c3nc4ccccc4s3)CC2)c1,-23%,-30%
COc1ccc(OC)c(NC(=O)C2CCCN2S(=O)(=O)c2cccc3nsnc23)c1 (stereo unspecified),-14%,-7%
O=C(NC1CCCCC1)C1CC=CCC1C(=O)OCC(Cl)=C(Cl)Cl (stereo unspecified),-23%,nt
COc1ccc(-c2cc(C(F)(F)F)nc(SCCC(=O)Nc3ccc(F)cc3F)n2)cc1,-10%,-9%

# Among those listed so far, 2 have a CF3 group:
SMILES,Vaccinia Venus,VACV mCherry inh
C[C@@H]1CN([C@@H](C)CO)C(=O)CCCn2nncc2CO[C@@H]1CN(C)C(=O)Nc1ccccc1C(F)(F)F,-8%,-11%
COc1ccc(-c2cc(C(F)(F)F)nc(SCCC(=O)Nc3ccc(F)cc3F)n2)cc1,-10%,-9%

# Next part:
SMILES,Vaccinia Venus,VACV mCherry inh
Cc1ccccc1NC(=O)C(C)SCc1ccccc1 (stereo unspecified),3%,i
O=C(CN(C(=O)CNC(=O)c1cccs1)c1ccccc1)NC1CCCCC1,3%,22%
COc1cccc(NC(=O)CSc2nc(=O)n(Cc3cccnc3)c3c2CCC3)c1,-3%,-14%
Cc1cccc(CNc2ncnc3ccc(-c4ccc5c(c4)OCO5)cc23)c1,-8%,-24%
CCSc1nnc(NC(=O)c2cccn(Cc3ccc(Cl)cc3)c2=O)s1,?,-25%
CCOC(=O)[C@]12CCC=C1N(CCC1=CCCCC1)C(=O)[C@H](CC(=O)NCc1ccc(OC)c(OC)c1)C2,-17%,-15%
CCCC(=O)Nc1nn(C)c2nc3c(C)cccc3cc12,-5%,-9%
COc1cccc(-c2nc(=S)c3c(o2)CCCC3)c1,-14%,-14%
FC(F)(F)c1cc(-c2ccccc2)nc(N2CCCCC2)n1,-7%,nt
COc1cc(C(=O)Nc2cccc3cccnc23)cc(OC)c1OC,-11%,nt
COc1cc(C(C)=O)ccc1OC(=O)c1cc2cccc(OC)c2oc1=O,-8%[7.34 µM],-12%[7.34 µM]
CCOc1ccc(C(C)(C)C)cc1S(=O)(=O)N1CCOCC1,-17%,-14%
COc1ccccc1NC1=C(Cl)C(=O)N(c2ccccc2)C1=O,-3%,i
Cc1ccc(NC(=O)C2(c3ccccc3)CCCC2)nc1,-22%,-4%
Cc1ccc2c(c1)C1CN(C)CCC1N2C(=O)Nc1ccc(Cl)cc1 (stereo unspecified),-14%,-15%

# Random excerpt: seven compounds from above.
SMILES,Vaccinia Venus,VACV mCherry inh
CSc1ccc(/C=N/Nc2cccc(C(=O)O)c2)cc1,-13%,-8%
CN(C)/C=C/c1onc(-c2c(F)cccc2Cl)c1C#N,-15%,-6%
CC(C)CC(=O)OC(C)(C)[C@@H]1Cc2c(ccc3ccc(=O)oc23)O1,7%,i
COc1cccc(-c2nc(=S)c3c(o2)CCCC3)c1,-14%,-14%
CCOc1ccc(C(C)(C)C)cc1S(=O)(=O)N1CCOCC1,-17%,-14%
CCSc1nnc(NC(=O)c2cccn(Cc3ccc(Cl)cc3)c2=O)s1,?,-25%
Cc1ccccc1NC(=O)C(C)SCc1ccccc1 (stereo unspecified),3%,i

# (list continues)
SMILES,Vaccinia Venus,VACV mCherry inh
COc1cc(/C=N/NC(=O)Cc2ccc(Br)cc2)cc(OC)c1O,3%,-11%
CCn1cc(CN2CCCC(C(=O)Nc3ccc(-c4nc5ccccc5[nH]4)cc3)C2)c(C)n1 (stereo unspecified),-15%,-19%
C[C@H]1CN([C@@H](C)CO)C(=O)Cc2cc(NC(=O)Cn3cnnn3)ccc2O[C@H]1CN(C)Cc1ccncc1,1%,i
O=C(COc1ccccc1)NCc1ccc2c(c1)OCO2,-7%,?
COCCn1c(=NC(C)=O)sc2cc([N+](=O)[O-])ccc21,-2%,i
COc1ccc(NC(=O)Nc2cc(C)ccn2)cc1,-8%,16%
COC(=O)[C@]12CCCCC=C1N(Cc1ccc(Cl)cc1Cl)C(=O)[C@H](CC(=O)NCc1ccc(OC)c(OC)c1)C2,-24%,-11%
O=S(=O)(c1ccc2ccccc2c1)N(CC1CO1)c1ccccc1 (stereo unspecified),4%,i
CCOC(=O)N1CCC(NC(=O)CN2C(=O)CSc3ncccc32)CC1,-3%,i
CCCC(=O)NNC(=O)c1ccoc1C,2%,-12%
CC(C)(C)C(=O)Nc1cc(C(F)(F)F)ccc1-n1ccnc1,-10%,i
CC(C)CCC1(C)NC(=O)N(CC(=O)c2ccc[nH]2)C1=O (stereo unspecified),8%,-12%
CCn1c(/C=C2\C(=O)N(C)c3ccccc32)nc2ccccc2c1=O,-15%,-19%
O=C1CC(N2CCC(O)(c3ccc(Cl)cc3)CC2)C(=O)N1Cc1ccc(N2CCCC2=O)cc1 (stereo unspecified),-21%,-26%
CN(C)c1nc(NNC(=O)c2ccccc2)nc(N(C)C)n1,-9%,i
CS(=O)(=O)N(CCC(=O)O)Cc1ccccc1,-8%,nt
CCCOc1ccc(Br)cc1/C=N/O,?,nt
CC(C)(C)c1cc(C(=O)NCc2ccco2)ccn1,-8%,i
CC(C)(C)OC(=O)N(CCc1ccccc1)Cc1cccc(OCc2cccc(NC(=O)/C=C/c3ccccc3)c2)c1,-10%,9%
Cc1ccc(-c2nn(-c3ccccc3)cc2/C=C2\SC(=S)N(CCCCCC(=O)O)C2=O)o1,8%,0%
Cc1cc(C(F)(F)F)c2c(C)nn(CCc3nn[nH]n3)c2n1,8%,nt
O=C(Nc1cccc(F)c1)C1CCN(S(=O)(=O)c2cccc3nonc23)CC1,-7%,15%
C=CCn1c(-c2cc(OC)cc(OC)c2)n[nH]c1=S,-6%,-10%
CC(CC(C)C(=O)N1CCOCCN(C(=O)C(C)CC(C)C(=O)O)CCOCC1)C(=O)O (stereo unspecified),3%,-3%
CCOc1ccc2oc(=O)cc(C)c2c1,-15%,nt
CCCCNC(=O)C1(C)CCCCN1C(=O)c1cc2ccccc2s1 (stereo unspecified),-3%,38%[activator]
CS(=O)(=O)c1nc(S(=O)(=O)c2ccc(Cl)cc2)c(N2CCCCCC2)s1,-4%,-21%
C[C@H](NC(=O)c1ccco1)C(=O)NCCc1ccc(S(N)(=O)=O)cc1,0%[7.34 µM],-2%[7.34 µM]
COc1ccccc1-c1cnc2c(c1)C(=O)N([C@@H](C)CO)C[C@H](C)[C@H](CN(C)C)O2,4%,i
Cc1ccccc1C1(CCN2CCCCC2)CCOC(C)(C)C1 (stereo unspecified),6%,i
CCOc1cc(N2CCOCC2)c(OCC)cc1NC(=O)c1ccco1,-7%,i
Cc1ccc2c(c1)NC(=O)C(CC(=O)NCCCN1CCCC1)O2 (stereo unspecified),-1%,-4%
COc1ccccc1NC(=O)c1ccc(NC(=O)CN2CCCCC2)cc1,2%,-13%
CCOc1ccc(S(=O)(=O)n2cnc3cc(C)c(C)cc32)cc1,?,?
CCCCN1C(=O)/C(=C/c2ccc(N(C)C)cc2)C(=O)N(Cc2ccco2)C1=O,32%[activator],4%
COCCCn1c2nc3ccccc3nc2c2c(=O)n(CC3CCCO3)cnc21 (stereo unspecified),2%,-6%
CCn1cc(S(=O)(=O)c2ccccc2)c(=O)c2cc(F)c(N3CCCC3)cc21,-20%,-18%
Cc1cc(C)c2c(-n3cccc3)c(C(=O)O)sc2n1,1%,-9%
c1ccc(C2=NC(c3ccccc3)CC2)cc1 (stereo unspecified),-7%,-7%
CCOC(=O)C1=C(CN2CC(C)CC(C)C2)NC(=O)NC1c1ccc2c(c1)OCO2 (stereo unspecified),-2%,-7%
Cc1ccc2nc(-c3cccc(NS(C)(=O)=O)c3)cc(-c3ccccc3)c2c1,-29%,-20%
COc1cccc(CNC(=O)C(NS(=O)(=O)c2ccc3nc(C)sc3c2)C(C)C)c1 (stereo unspecified),-6%,-7%
Cc1ccc(NC(=O)C2CCCN(S(=O)(=O)c3cccc4nonc34)C2)cc1 (stereo unspecified),-1%,-10%
Cc1ccc(OCc2nc(-c3ccc(C(=O)N4CCN(c5ccc(Cl)cc5)CC4)cc3)oc2C)cc1,-28%,-23%
CC(=O)Nc1ccc(S(=O)(=O)N2CN(c3ccc(C)cc3)c3nc4ccccc4nc32)cc1,-12%,i
Cc1ccc(OCC(=O)Nc2cc(-c3nc4ccccc4[nH]3)ccc2C)c(C)c1,-6%,5%
COc1ccc(N2CC(C(=O)Nc3nc4ccc(F)cc4s3)CC2=O)c(OC)c1 (stereo unspecified),?,?
NC(=O)c1ccccc1N/C=C/C(=O)c1ccc(Cl)cc1Cl,-21%,-33%
COc1ccccc1CNC(=O)CSC1=NCCS1,-3%,-22%
CCOC(=O)C1=C(Cc2ccc(OC)cc2)C(=O)c2ccccc2C1=O,i,i
